Screens (PubChem)
PINK1 modulator – PINK1 expression modulation. Potency, µM (titrated, usually from 76.6 µM), inactives show top-dose activation (PINK1 increase), hits mostly activators. PINK1 immunofluorescence, high-content cytometry, 24 h. 410,000 tested, 0.2% active; active = well fitted activation curve with a large enough effect; inconclusive = small, poorly fitted or top-dose-only effect; inactive = flat fitted curve, though single readings scatter; cell line not stated here;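 note: potency is the fitted concentration of half-maximal effect; % of control where 0% means no effect; nearly all actives have a fitted effect of over 65% in size; a mitochondrial uncoupler was the plate control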
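Fluorescence from anti-PINK1 antibody, together with nuclear and cell stains, was scanned on a laser-scanning cytometer. Before staining, stable-line cells were incubated 24 hours with compounds at 5 concentrations; primary antibody 12 h at 10 degrees C.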
D2 ag – activates the human D2 dopamine receptor; P14416; DiscoveRx PathHunter D2 beta-arrestin, luminescence, 90 min; 100% = 57 uM dopamine signal; activation, % (concentration not given with the values); 360,000 tested, 0.084% active; AID 624465; in the data active = activation above about 40%; inconclusive = about 15% to 40%; inactive = below about 15%; note: compound concentration not given in the record; the text of the record calls up to 30% inactive
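Agonist mode: compounds alone added to overnight-plated D2 PathHunter cells for 90 min at 37 C, with 57 uM final dopamine (EC100) defining full response. Beta-arrestin recruitment detected by chemiluminescent reagent, read after 1 h at ambient temperature.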
D2 potentiator – human D2 receptor positive allosteric modulation; 360,000 tested, 0.23% active; potentiation, % (no concentration beside the values); AID 624464; DiscoveRx D2 beta-arrestin cells, luminescence, 90 min; 100% = 57 uM dopamine signal; P14416; active = potentiation of 50% or more; inconclusive = 30% to 50%; inactive = 30% or less;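 note: compound concentration not given in the record; tested on top of an EC20 dose of dopamine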
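PathHunter D2 cells, attached overnight at 37 deg C, received compound in DMSO plus dopamine at EC20 (50 nM final) for 90 min at 37 deg C. Beta-arrestin recruitment was read as luminescence after 1 h with detection reagent at ambient temperature.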
CtBP-E1A inh – blocks the CtBP interaction with E1A. AlphaScreen GST-E1A/His-CtBP binding, 1536-well; stronger effect = lower value; control for the full effect not named in the record. activity change, % (test concentration not listed). 340,000 tested, 0.49% active; in the data active means activity change below about -65%; inconclusive means about -30% to -65%; inactive means above about -30%; note: % is set by controls: 0 for no effect and ±100 for the full control effect; compound concentration not given in the record
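Homogeneous bead-based format: GST-tagged E1A captured on glutathione donor beads, His-tagged CtBP on nickel acceptor beads; compounds precede bead addition by 2 h at 37 °C.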
TRPML1 ag – activates the human TRPML1 channel | TRPML1-expressing cells, Ca2+ dye fluorescence, FDSS; host cell line not named in the record; reference of the full effect not given here | activation, % (no concentration beside the values) | 410,000 tested, 0.12% active | AID 624414; in the data active = activation above about 50%; inconclusive = about 30% to 50%; inactive = below about 30%; note: 0% is about no effect; the text of the record puts the active cut at 80%
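In this qHTS format, compounds were pin-transferred onto Ca8-dye-loaded TRPML1-DL cells induced with Tet overnight, and intracellular Ca2+ fluorescence was recorded kinetically for 110 s after a 10 s baseline. A subsequent 4uM final 54-4 (EC80) addition followed by a second 110 s read served as the antagonist phase.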
Six1-Eya2 inh – inhibitors of human Six1/Eya2 interaction; activity change, % (concentration not given with the values); AlphaScreen GST-Six1/His-Eya2 binding, biochemical; stronger effect = lower value; control for the full effect not named in the record; 360,000 tested, 0.56% active; AID 651725; in the data active = activity change below about -65%; inconclusive = about -30% to -65%; inactive = above about -30%; note: % is set by controls: 0 for no effect and ±100 for the full control effect
Target sequence (O00167 whole entry, looked up): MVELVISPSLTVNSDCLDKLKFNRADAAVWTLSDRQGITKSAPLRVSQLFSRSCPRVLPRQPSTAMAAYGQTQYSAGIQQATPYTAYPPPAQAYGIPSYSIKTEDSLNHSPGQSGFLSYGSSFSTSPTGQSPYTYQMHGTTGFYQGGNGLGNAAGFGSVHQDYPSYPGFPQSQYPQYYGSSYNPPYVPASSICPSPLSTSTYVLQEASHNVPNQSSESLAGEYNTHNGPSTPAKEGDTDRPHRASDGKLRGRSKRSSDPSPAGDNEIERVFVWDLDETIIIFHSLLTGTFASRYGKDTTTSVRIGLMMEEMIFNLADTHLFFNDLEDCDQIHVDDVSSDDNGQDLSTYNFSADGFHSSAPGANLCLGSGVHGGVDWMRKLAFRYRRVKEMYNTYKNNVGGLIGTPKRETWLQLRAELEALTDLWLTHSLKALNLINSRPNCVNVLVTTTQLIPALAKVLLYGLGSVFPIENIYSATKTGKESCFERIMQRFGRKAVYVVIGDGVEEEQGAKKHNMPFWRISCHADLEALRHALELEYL
Target sequence (Q15475 whole entry, looked up): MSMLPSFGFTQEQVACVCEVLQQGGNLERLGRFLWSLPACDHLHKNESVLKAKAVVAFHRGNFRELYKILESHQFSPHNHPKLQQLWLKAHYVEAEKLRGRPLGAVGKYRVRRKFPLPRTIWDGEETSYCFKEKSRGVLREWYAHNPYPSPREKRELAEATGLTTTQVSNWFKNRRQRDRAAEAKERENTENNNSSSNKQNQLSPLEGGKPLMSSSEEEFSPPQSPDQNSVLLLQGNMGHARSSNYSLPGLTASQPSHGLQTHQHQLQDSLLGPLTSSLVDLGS
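Homogeneous AlphaScreen proximity assay pairing GST-Six1 with His-tagged Eya2 (added as 5X mix: 250 nM and 500 nM) in 50 mM Tris pH 8.0, 300 mM NaCl, 1 mM TCEP. Glutathione donor and nickel acceptor beads; 1 h, 37 °C, dark.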
The depositor's hits bear a star; ? = inconclusive; nt = not tested or not shown; & = joins results of further samples; [ ] = remark or other dose.

1) CCn1ncc(Br)c1C(=O)Nc1sc2c(c1C(=O)OC)CCC2
2) CCN1CCN(c2ccc(NC(=O)c3ccc4c(c3)OCCO4)cc2C)CC1
3) O=C(CSc1nnc(-c2ccccc2)o1)NC1CCCC1
4) CNC(=O)c1[nH]cnc1C(=O)N[C@@H](Cc1ccccc1)C(=O)OCc1ccccc1
5) CC(C)CC1(C)NC(=O)N(CC(=O)Nc2ccccc2Br)C1=O (configuration not stated)
6) COc1ccc(C2/C(=C(/O)c3ccc4c(c3)CC(C)O4)C(=O)C(=O)N2CCCn2ccnc2)cc1 (configuration not stated)
7) Cc1[nH]nc2c1C(c1ccc(Cl)cc1)C(C#N)=C(N)O2 (configuration not stated)
8) CC1=C(C(=O)OC(C)C)C(c2cccs2)N2C(=O)CCSC2=N1 (configuration not stated)
Screen / compound no. | 1 | 2 | 3 | 4 | 5 | 6 | 7 | 8
PINK1 modulator | nt | -2.3% | 1.3% | 23% | -2.2% | -0.4% | 2.0% | -0.5%[38.3 µM]
D2 ag | -0.3 | -5.0 | 3.1 | 1.2 | -6.4 | -0.3 | -6.9 | -3.2
D2 potentiator | 15 | -14 | 11 | -18 | -3 | -2 | -19 | -2
CtBP-E1A inh | 3 | 3 | 2 | nt | -5 | -2 | 4 | 7
TRPML1 ag | 0.6 | 1.6 | -0.2 | 2.6 | 0.4 | -0.6 | 1.6 | 2.1
Six1-Eya2 inh | 13 | -6 | 4 | -6 | 10 | -2 | -5 | 3

9) COC(=O)NC1c2ccccc2Oc2ccccc21
10) Cc1nc(Cl)c(C#N)c2c1CCCC2
11) Cn1c(SCc2ccccc2C#N)nc2ccccc2c1=O
12) CCc1ccccc1NC(=O)c1cc2sccc2n1C
13) Cc1cc2c(cc3c(=O)n(CC(=O)NCCCN4CC(C)CC(C)C4)ncn32)s1 (configuration not stated)
14) COc1cccc(NC(=O)CN(C)CC(=O)NC(C)c2ccccc2)c1 (configuration not stated)
15) COc1ccccc1CNC(=O)N/C=C/c1ccc(Cl)cc1
16) Cc1ccc(S(=O)(=O)N2CCC[C@H]2C(=O)OCC(=O)Nc2ccc3c(c2)OCO3)cc1
Screen / compound no. | 9 | 10 | 11 | 12 | 13 | 14 | 15 | 16
PINK1 modulator | -0.2% | -0.6% | 2.2% | 2.3% | -1.5% | 0.7% | 1.6% | -0.4%
D2 ag | -1.0 | 0.7 | 11 | -2.5 | -4.6 | 0.0 | -3.3 | 5.7
D2 potentiator | -8 | -1 | 6 | -4 | -37 | -8 | -3 | 1
CtBP-E1A inh | 1 | 0 | 1 | -3 | 8 | 7 | -2 | -7
TRPML1 ag | -1.1 | 0.3 | 3.3 | 2.1 | -0.8 | 2.7 | 0.9 | 4.2
Six1-Eya2 inh | 4 | -1 | 0 | -8 | 0 | 16 | -1 | -6

17) Cc1ccc(S(=O)(=O)c2nnn3c2nc(N2CCN(c4ccccn4)CC2)c2ccccc23)cc1
18) Cc1ccccc1-n1c(SCC(=O)N2CCC(C(=O)O)CC2)nnc1-c1ccncc1
19) COc1ccc(NC(=O)CSc2nnc(-c3ccccn3)n2N)c(OC)c1
20) Cc1ccc(-c2nnn(CC(=O)NCC3CC3)n2)o1
21) CNS(=O)(=O)c1ccc(OC)c(-c2nnc3c4ccccc4c(C)nn23)c1
22) COc1ccc(NC(=O)COC(=O)CC23CC4CC(CC(C4)C2)C3)c([N+](=O)[O-])c1
23) COCCNS(=O)(=O)c1cc(-c2nn(C)c(=O)c3ccccc23)ccc1C
24) CCOC(=O)N1CCN(C(=O)COc2ccc3ccccc3c2Br)CC1
Screen / compound no. | 17 | 18 | 19 | 20 | 21 | 22 | 23 | 24
PINK1 modulator | -0.9% | 0.5% | -2.7% | 1.3% | 1.7%&0.6% | 3.0% | -0.3% | -0.5%
D2 ag | 15 | -1.1 | 0.2 | -1.1 | -4.6 | 1.4 | -4.5 | -0.5
D2 potentiator | -7 | 0 | -5 | -9 | 5 | 2 | -12 | -8
CtBP-E1A inh | nt | 2 | ? | -3 | 0 | ? | -1 | -1
TRPML1 ag | -1.1 | 0.2 | -0.3 | 2.3 | -0.3&0.5 | 1.6 | 0.0 | 1.4
Six1-Eya2 inh | -13 | 8 | ? | 1 | -11 | ? | 7 | -15

25) CC(O)Cc1nsc(NC(=O)c2ccc(Br)o2)n1 (configuration not stated)
26) O=C(CCNS(=O)(=O)/C=C/c1ccccc1)NCCc1c[nH]c2ccccc12
27) O=C(O)CCC(=O)N1CCN(c2ncccn2)CC1
28) COc1cc(/C=C/C(=O)OCC(=O)NCCc2ccc(S(N)(=O)=O)cc2)ccc1OCC#N
29) Cc1cc(C(=O)Nc2ccc(Nc3ccccc3)cc2)ccc1[N+](=O)[O-]
30) Cn1cc(CNC(=O)C2CCC(=O)N(Cc3ccccc3F)C2)cn1 (configuration not stated)
31) COc1ccc(C2C(C(C)=O)=C(C)Nc3ncnn32)cc1 (configuration not stated)
32) Cn1c(C(=O)O)c(CC(=O)NCC2COc3ccccc3O2)c2ccccc21 (configuration not stated)
Screen / compound no. | 25 | 26 | 27 | 28 | 29 | 30 | 31 | 32
PINK1 modulator | 3.1%[38.3 µM] | 5.7% | -1.0% | 1.1% | 7.5% | -0.4% | -1.0% | 0.8%
D2 ag | -1.4 | -0.3 | 3.0 | 1.2 | -5.4 | -2.8 | -0.4 | -3.6
D2 potentiator | 1 | -4 | -2 | 4 | -13 | -22 | -1 | 11
CtBP-E1A inh | 3 | 2 | 14 | 24 | -21 | 0 | nt | 0
TRPML1 ag | -1.0 | -1.0 | -0.4 | 0.4 | 2.1 | -0.1 | -1.1 | -0.1
Six1-Eya2 inh | 1 | -8 | 3 | 5 | ? | 14 | 0 | -2

33) CC(C)(C)OC(=O)C[C@@H]1C/C=C\C[C@@H](CC(=O)N(CCO)Cc2ccccc2)C(=O)N[C@H](Cc2c[nH]c3ccccc23)COC1=O
34) Nc1ccc(-c2cc(NC=O)c3ncc(-c4cccc(C(F)(F)F)c4)n3c2)cn1
35) O=C(CSCc1ccccc1Cl)NN=C1CCCCCC1
36) CC(C)COC(=O)N(C)C[C@H]1OCc2cnnn2CCCC(=O)N([C@@H](C)CO)C[C@H]1C
37) O=C1CC(N2CCC(c3nc4ccccc4[nH]3)CC2)C(=O)N1c1cccc(F)c1 (configuration not stated)
38) CC1=CC(c2ccccc2)=NS(=O)(=O)N1
39) CCOc1ccccc1NS(=O)(=O)c1ccc2c(c1)n(C)c(=O)c(=O)n2C
40) Cc1cc(=O)n2c(n1)OC(CO)C2 (configuration not stated)
Screen / compound no. | 33 | 34 | 35 | 36 | 37 | 38 | 39 | 40
PINK1 modulator | -0.4% | -1.0% | -0.2% | -2.0% | -0.1% | 1.0% | -2.5% | 4.3%[38.3 µM]
D2 ag | -2.1 | -4.3 | 0.7 | -6.7 | -1.7 | -1.1 | -2.3 | -1.0
D2 potentiator | -9 | -3 | 14 | 4 | -2 | nt | 2 | -11
CtBP-E1A inh | -1 | ? | 2 | 2 | 4 | 6 | 2 | 50
TRPML1 ag | 0.0 | -0.7 | 0.6 | -0.3 | 1.4 | -0.6 | 0.5 | 0.0
Six1-Eya2 inh | -7 | -27 | 1 | 6 | 4 | 8 | -8 | 26

41) CCOC(=O)/C=C1\SCC(=O)N1CC(=O)Nc1ccc(OC)c(OC)c1
42) O=C(NCc1ccco1)c1cc(Cl)nc(Cl)c1
43) C/C(=N/NC(=O)c1ccc2c(c1)OCO2)c1ccc(Br)s1
44) O=C(c1ccccc1N(Cc1ccccc1)S(=O)(=O)c1ccccc1)N1CCOCC1
45) CCOC(=O)c1c(/N=C/N(C)C)sc(C)c1C
46) Cn1c(N)c(C(=O)COC(=O)c2cc3ccccc3cc2O)c(=O)n(C)c1=O
47) COCCn1c(=O)[nH]c2cc(C(=O)N3CCN(c4cccc(Cl)c4)CC3)ccc2c1=O
48) C=CCn1c(SCC(=O)c2c(N)n(C)c(=O)n(C)c2=O)nc2sc(C)c(C)c2c1=O
Screen / compound no. | 41 | 42 | 43 | 44 | 45 | 46 | 47 | 48
PINK1 modulator | -1.2% | 4.1% | 5.7% | 3.6% | -1.2% | 1.9% | -2.5% | 0.5%[38.3 µM]
D2 ag | -1.4 | -4.3 | -4.6 | -4.9 | 1.5 | -0.2 | 0.7 | -1.6
D2 potentiator | -6 | -13 | -7 | -10 | -3 | 12 | -4 | -11
CtBP-E1A inh | 1 | -3 | nt | 0 | 8 | -1 | -11 | 35
TRPML1 ag | 3.7 | 0.4 | 0.9 | -1.8 | 0.1 | -0.6 | -0.4 | -0.4
Six1-Eya2 inh | 0 | -2 | -5 | -17 | -3 | -10 | -20 | 22

Some of these compounds in order of the CtBP-E1A inh value, rising:
cpd	compound	CtBP-E1A inh
47	COCCn1c(=O)[nH]c2cc(C(=O)N3CCN(c4cccc(Cl)c4)CC3)ccc2c1=O	-11
46	Cn1c(N)c(C(=O)COC(=O)c2cc3ccccc3cc2O)c(=O)n(C)c1=O	-1
44	O=C(c1ccccc1N(Cc1ccccc1)S(=O)(=O)c1ccccc1)N1CCOCC1	0
41	CCOC(=O)/C=C1\SCC(=O)N1CC(=O)Nc1ccc(OC)c(OC)c1	1
45	CCOC(=O)c1c(/N=C/N(C)C)sc(C)c1C	8
48	C=CCn1c(SCC(=O)c2c(N)n(C)c(=O)n(C)c2=O)nc2sc(C)c(C)c2c1=O	35

Other results
49) CCOC(=O)C1CCN(c2nnc(N3CCCC3=O)s2)CC1
50) CCCCOCCOC(=O)C1OC1(C)c1ccccc1 (configuration not stated)
51) CCCN(CC(=O)Nc1ccccc1C)C(=O)c1ccc2[nH]c3c(c2c1)CC(C)CC3 (configuration not stated)
52) CCCNC(=O)c1cc(C2CCCCN2C(=O)c2ccc(NC(C)=O)cc2)on1 (configuration not stated)
53) CCc1ccccc1NC(=O)CSc1nnc([C@@H]2CCCN2C(=O)OC(C)(C)C)o1
54) CCN1C(=O)[C@@H]2[C@H](C1=O)[C@@H]1C(=O)Nc3ccccc3C(=O)N1[C@@H]2c1ccccc1
55) Nc1nc(-c2cccnc2)nn1C(=O)Cc1ccccc1
56) CCOC(=O)Cc1csc(NC(=O)COc2ccccc2OC)n1
Screen / compound no. | 49 | 50 | 51 | 52 | 53 | 54 | 55 | 56
PINK1 modulator | -1.4% | -0.6% | -1.2% | 2.2% | -0.9% | -0.3% | ? | -4.9%[38.3 µM]
D2 ag | 0.4 | -2.6 | 14 | -2.0 | -3.7 | -3.1 | 0.9 | 2.9
D2 potentiator | 4 | -4 | -2 | -6 | -5 | -7 | -9 | -11
CtBP-E1A inh | 0 | 5 | -19 | 4 | 2 | 1 | 6 | -4
TRPML1 ag | -1.3 | -0.4 | 0.4 | -0.3 | -1.4 | -0.7 | -0.2 | 0.3
Six1-Eya2 inh | -6 | 2 | -18 | 6 | -2 | -4 | -1 | 1

Retrieved one by one from the entries so far:
32) Cn1c(C(=O)O)c(CC(=O)NCC2COc3ccccc3O2)c2ccccc21 (configuration not stated)
6) COc1ccc(C2/C(=C(/O)c3ccc4c(c3)CC(C)O4)C(=O)C(=O)N2CCCn2ccnc2)cc1 (configuration not stated)
Screen / compound no. | 32 | 6
PINK1 modulator | 0.8% | -0.4%
D2 ag | -3.6 | -0.3
D2 potentiator | 11 | -2
CtBP-E1A inh | 0 | -2
TRPML1 ag | -0.1 | -0.6
Six1-Eya2 inh | -2 | -2
